Bioassay records from PubChem BioAssay.
rRNA inh HTS: reduced GFP signal of wild-type E. coli, primary screen, bacterial rRNA inhibitor project, GFP/RFP fluorescence, OD600, single point; E. coli WT GFP vs humanized-ribosome RFP mutants, 24 h; active compounds read low; DMSO median 0, no signal -100; GFP signal change (wild-type ribosome), % (test concentration not listed); actives 1.6% (n = 350,000);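 active = significant combined selectivity score with lowered wild-type GFP, culture density cut under 30%, mutant RFP and density less affected; inactive = any of these conditions unmet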; also: one replicate is shown; some compounds called inactive have numbers as strong as hits
FGF22 binding: binders of human FGF22 protein, primary screen, FGF22 synaptogenesis inhibitor project, biophysical, thermal shift, single point. recombinant FGF22 thermal shift, SYPRO orange fluorescence; percent of sucrose octasulfate shift, DMSO zero. calls only at 9.99 µM. actives 1.5% (n = 340,000). AID 651658, 2012;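 active = melting point raised past a set limit in the mean and every replicate; three in four hits are not shown here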
Target sequence (Q9HCT0 whole entry, looked up): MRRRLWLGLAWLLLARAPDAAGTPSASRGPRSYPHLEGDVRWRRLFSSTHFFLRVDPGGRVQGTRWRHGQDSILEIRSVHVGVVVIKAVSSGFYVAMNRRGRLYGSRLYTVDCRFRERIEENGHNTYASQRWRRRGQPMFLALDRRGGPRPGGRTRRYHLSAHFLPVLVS
rRNA inh HTS OD600: recorded beside rRNA inh HTS, whose call it bears; OD600 change, %; measured here: OD600 growth;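 optical density of the mix in the first replicate; 0 = DMSO median and -100 = no signal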
rRNA inh HTS RFP: further read-out of rRNA inh HTS, marked with its call; RFP signal change, %; measured here: RFP humanized mutant strains;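 first replicate; 0 = DMSO median and -100 = no signal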
Starred values were filed as active, the others as inactive; i = inactive. These rows are one share of the data, so the mix of outcomes need not match the whole.

Every second line gives: rRNA inh HTS	rRNA inh HTS OD600	rRNA inh HTS RFP	FGF22 binding
CC(C)NC(=O)Nc1cccc2c1O[C@@H](CN(C)S(=O)(=O)c1ccc(F)cc1)[C@H](C)CN([C@H](C)CO)C2=O
 : -0.8	2.7	-1.0	i
COCC(=O)Nc1ccc2c(c1)[C@@H]1C[C@H](CC(=O)NCc3ccc4c(c3)OCO4)O[C@H](CO)[C@@H]1O2
 : 0.5	-0.3	-2.6	i
OC[C@H]1[C@H]2c3ccccc3NC[C@H]2N1CC1CCCCC1
 : 2.7	1.4	-2.3	i
CN1[C@H](C(=O)NCC2CCCCC2)[C@@H](CO)[C@@H]2Cn3c(ccc(-c4cccnc4)c3=O)[C@@H]21
 : -3.1	-1.6	-1.5	i
CC(C)CC#Cc1cnc2c(c1)C(=O)N([C@H](C)CO)C[C@@H](C)[C@@H](CN(C)C(=O)c1cccc(F)c1)O2
 : -1.6	8.2	-5.8	i
CO[C@@H]1CN(C)C(=O)c2cc(NS(C)(=O)=O)ccc2OC[C@H](C)N(CC2CCCCC2)C[C@H]1C
 : -7.4	-17.2	1.2	i
O=C(C[C@H]1CC[C@H](NC(=O)Cc2ccccn2)[C@@H](CO)O1)NCCCN1CCOCC1
 : 2.2	4.7	-0.9	i
COc1cccc(-c2ccc3c(c2)[C@H]2[C@H](CCN2S(=O)(=O)c2ccccc2C)[C@H](CO)N3)c1
 : -0.7	-1.5	-3.1	i
COCC(=O)N1C[C@@H](C)[C@@H](OC)CN(C)C(=O)c2cc(NC(=O)Nc3cccc(F)c3)ccc2OC[C@@H]1C
 : -1.0	0.7	-0.6	i
CN1c2ccc(-c3cccc(F)c3)cc2[C@@H]2[C@@H](CCN2C(=O)c2ccc3c(c2)OCO3)[C@@H]1CO
 : -4.4	-13.9	18.4	i
CCC(=O)Nc1ccc2c(c1)C(=O)N(C)C[C@H](OC)[C@H](C)CN(C(=O)COC)[C@H](C)CO2
 : 0.8	3.6	-1.2	i
O=C(NC1CCC1)[C@@H]1[C@@H](CO)[C@@H]2Cn3c(ccc(-c4ccncc4)c3=O)[C@H]1N2Cc1cocn1
 : 3.1	5.4	-0.7	i
CN(C)C(=O)c1cccc(-c2ccc3c(c2)[C@@H]2[C@@H](CCN2S(=O)(=O)c2ccccc2)[C@H](CO)N3)c1
 : -5.5	-6.4	-0.9	i
CN1C(=O)c2cc(NC(=O)c3ccc(C#N)cc3)ccc2OC[C@H]2O[C@@H](CC(=O)NC3Cc4ccccc4C3)CC[C@@H]21
 : -6.7	-7.0	-2.6	i
C/C=C/c1cnc2c(c1)C(=O)N([C@@H](C)CO)C[C@@H](C)[C@H](CN(C)C(=O)Cc1ccccn1)O2
 : 4.7	5.0	2.9	i
C[C@H](CO)N1C[C@H](C)[C@@H](CN(C)C(=O)C2CCOCC2)Oc2cc(C3=CCCCC3)ccc2S1(=O)=O
 : -1.3	4.0	-3.5	i
COc1ccc(CN(C)C[C@H]2Oc3ccc(NC(=O)Cc4cn(C)c5ccccc45)cc3CC(=O)N([C@H](C)CO)C[C@H]2C)cc1
 : -0.7	-10.5	3.9	i
CNC(=O)C[C@@H]1CC[C@H]2[C@@H](COC[C@@H](O)CN2S(=O)(=O)c2ccc(Oc3ccccc3)cc2)O1
 : 2.2	6.1	3.2	i
C/C=C/c1cnc2c(c1)C(=O)N([C@H](C)CO)C[C@@H](C)[C@H](CN(C)Cc1ccc(F)cc1)O2
 : 10.3	17.2	-1.1	i
CC(=O)NC[C@@H]1[C@H](c2ccc(-c3ccccc3F)cc2)[C@H](CO)N1C(=O)C1CC1
 : -2.2	1.2	-2.6	i
C[C@H]1CN([C@@H](C)CO)C(=O)c2cccc(NS(C)(=O)=O)c2O[C@H]1CN(C)Cc1ccc(-c2ccccc2)cc1
 : -4.3	-5.3	2.9	i
C[C@H](CO)N1C[C@H](C)[C@H](CN(C)S(=O)(=O)c2ccc(Cl)cc2)Oc2ccc(NC(=O)NC3CCCCC3)cc2C1=O
 : 3.0	4.4	-2.1	i
C=C1[C@H](C)CN(S(=O)C(C)(C)C)[C@H]1CCO (stereo partly drawn)
 : 11.9	11.5	-0.1	i
C[C@H]1CCCCO[C@@H](CN(C)C(=O)Nc2ccc3c(c2)OCO3)[C@@H](C)CN([C@@H](C)CO)C(=O)c2cc(NC(=O)Nc3ccccc3)ccc2O1
 : 0.4	-1.8	-1.1	i
C[C@H](CO)N1C[C@H](C)[C@H](CN(C)Cc2ccc(Cl)c(Cl)c2)Oc2c(NS(C)(=O)=O)cccc2C1=O
 : -4.6	-1.7	-1.3	i
C[C@@H]1CN([C@H](C)CO)C(=O)c2cc(C#Cc3ccccc3)cnc2O[C@@H]1CN(C)C(=O)CN(C)C
 : 0.1	-4.9	1.9	i
C[C@@H](NC(=O)C[C@H]1CC[C@@H](NC(=O)Nc2ccc3c(c2)OCO3)[C@@H](CO)O1)c1ccccc1
 : -3.6	-3.6	2.9	i
C[C@@H]1CCCCO[C@H](CN(C)Cc2ccc(C(=O)O)cc2)[C@@H](C)CN([C@H](C)CO)C(=O)c2cc(NS(=O)(=O)c3ccccc3)ccc2O1
 : 1.7	7.4	-0.2	i
CC(C)NC(=O)N(C)C[C@@H]1Oc2ccc(NS(=O)(=O)c3cn(C)cn3)cc2C(=O)N([C@@H](C)CO)C[C@H]1C
 : 3.3	12.7	0.1	i
CN1C(=O)c2cc(NC(=O)c3cccc(F)c3)ccc2OC[C@@H]2O[C@H](CC(=O)N3CCc4ccccc4C3)CC[C@H]21
 : -10.2	-18.9	3.1	i
COc1ccc(NC(=O)Nc2ccc3c(c2)CC(=O)N([C@@H](C)CO)C[C@@H](C)[C@@H](CN(C)Cc2ccccc2)O3)cc1
 : -3.9	-8.3	-1.1	i
N#C[C@H]1[C@@H](c2ccccc2C2=CCCC2)[C@H](CO)N1C(=O)C1CCC1
 : -4.8	-22.0	-1.4	i
C[C@H]1CN([C@@H](C)CO)C(=O)c2cccc(NC(=O)c3ccc(-c4nccs4)cc3)c2O[C@@H]1CN(C)Cc1ccc(Cl)c(Cl)c1
 : -0.6	6.9	-0.7	i
O=C(Cc1ccccn1)NCC[C@@H]1CC[C@H](NC(=O)c2ccccc2F)[C@@H](CO)O1
 : 6.8	-1.1	-1.2	i
Cc1ccccc1-c1ccc2c(c1)O[C@@H](CN(C)CC1CC1)[C@@H](C)CN([C@H](C)CO)S2(=O)=O
 : -0.9	-1.7	1.2	i
O=S(=O)(c1ccccc1)N1CCCCN2[C@H](CO)[C@H](c3ccc(C#CC4CCCC4)cc3)[C@@H]2C1
 : 3.7	10.2	1.3	i
CCC(=O)N1[C@@H](CO)[C@@H]2c3ccccc3N(C(=O)Nc3ccccc3Cl)C[C@@H]21
 : 2.9	-1.7	-1.8	i
Cc1cccc(-c2ccc([C@H]3[C@H]4CN(S(=O)(=O)c5ccccc5C)CCCCN4[C@H]3CO)cc2)c1
 : 2.8	22.2	-0.6	i
C[C@@H]1CCCCO[C@H](CN(C)S(=O)(=O)c2ccc(F)cc2)[C@@H](C)CN([C@H](C)CO)C(=O)c2cc(NS(C)(=O)=O)ccc2O1
 : -3.4	3.2	-4.0	i
C[C@@H]1CCCCO[C@H](CN(C)S(=O)(=O)c2cn(C)cn2)[C@@H](C)CN([C@@H](C)CO)C(=O)c2cc(NC(=O)Nc3ccc(C(F)(F)F)cc3)ccc2O1
 : -2.0	-0.7	-1.4	i
N#C[C@@H]1[C@@H](c2ccc(C3=CCCC3)cc2)[C@@H](CO)N1c1nc(-c2ccccc2)cs1
 : 0.2	4.3	-2.5	i
COc1cccc(C(=O)Nc2ccc3c(c2)OC[C@@H](C)N(CC2CC2)C[C@H](C)[C@H](OC)CN(C)C3=O)c1
 : -0.8	-4.2	-2.3	i
COc1cccc(-c2cnc3c(c2)C(=O)N([C@H](C)CO)C[C@H](C)[C@@H](CN(C)C(=O)CN(C)C)O3)c1
 : 9.0	3.2	-1.2	i
C[C@H]1CN([C@@H](C)CO)S(=O)(=O)c2ccc(C#Cc3ccccc3)cc2O[C@H]1CN(C)C(=O)Nc1ccc2c(c1)OCO2
 : 2.9	-3.2	-1.7	i
C[C@@H]1CN([C@H](C)CO)C(=O)c2cc(/C=C/c3ccccc3)cnc2O[C@@H]1CN(C)S(C)(=O)=O
 : -0.7	-2.5	-3.0	i
CCCNC(=O)N1CC2(CCN(Cc3cccc(F)c3)CC2)c2c([nH]c3cc(OC)ccc23)[C@H]1CO
 : -0.8	-0.2	-0.3	i
CC(C)NC(=O)N(C)C[C@@H]1Oc2ccc(NC(=O)NC3CCCCC3)cc2C(=O)N([C@@H](C)CO)C[C@@H]1C
 : -0.4	5.4	-0.3	i
O=C(C[C@@H]1C[C@@H]2c3cc(NC(=O)NC4CCCCC4)ccc3O[C@@H]2[C@H](CO)O1)NCc1ccccn1
 : 0.8	5.8	-0.6	i
COCC(=O)N1[C@@H]2c3cccc(=O)n3C[C@@H]2[C@@H](CO)[C@@H]1C(=O)NCc1ccccc1
 : 3.0	9.9	-1.2	i
CO[C@H]1CN(C)C(=O)c2cc(NC(=O)Nc3cc(F)ccc3F)ccc2OC[C@H](C)N(C(=O)c2cnccn2)C[C@H]1C
 : -5.3	-5.7	2.9	i
CO[C@H]1CN(C)C(=O)c2ccc(NC(=O)C3CC3)cc2OC[C@@H](C)N(C(=O)c2ccccc2F)C[C@@H]1C
 : 0.9	-2.1	-2.1	i
C[C@@H]1CN([C@H](C)CO)C(=O)Cc2cc(NS(=O)(=O)c3ccc(F)cc3)ccc2O[C@H]1CN(C)Cc1ccccc1
 : -1.0	-5.3	1.4	i
CN1C(=O)c2cc(NC(=O)c3cccc(F)c3)ccc2OC[C@@H]2O[C@@H](CC(=O)O)CC[C@@H]21
 : 1.9	6.7	1.6	i
COc1cccc(-c2ccc3c(c2)[C@H]2[C@H](CCN2C(=O)Nc2ccccc2OC)[C@@H](CO)N3C)c1
 : -0.1	8.9	4.6	i
O=C(N[C@@H]1CC[C@@H](CCNS(=O)(=O)c2cccc(Cl)c2)O[C@H]1CO)c1ccccc1
 : -3.0	-3.2	0.4	i
C[C@@H]1CN([C@@H](C)CO)C(=O)c2cc(C#C[C@@H](C)O)cnc2O[C@@H]1CN(C)Cc1cccc(F)c1
 : 2.0	14.8	-0.6	i
COc1ccc(C#Cc2ccc3c(c2)O[C@H](CN(C)C(=O)CN2CCOCC2)[C@H](C)CN([C@@H](C)CO)S3(=O)=O)cc1
 : -3.8	4.6	2.5	i
CC(C)CC#Cc1cnc2c(c1)C(=O)N([C@H](C)CO)C[C@@H](C)[C@@H](CN(C)Cc1ccc(F)cc1)O2
 : -0.9	-36.0	31.4	i
CN(C)C(=O)C[C@H]1CC[C@H]2[C@@H](COC[C@H](O)CN2CC2CC2)O1
 : -1.9	12.6	-2.4	i
CO[C@@H]1CN(C)C(=O)c2ccc(NC(=O)Nc3ccccc3)cc2OC[C@H](C)NC[C@@H]1C
 : -2.3	-0.8	-1.3	i

A different layout for part of the listing above:
CO[C@H]1CN(C)C(=O)c2ccc(NC(=O)C3CC3)cc2OC[C@@H](C)N(C(=O)c2ccccc2F)C[C@@H]1C
  rRNA inh HTS: 0.9
  rRNA inh HTS OD600: -2.1
  rRNA inh HTS RFP: -2.1
  FGF22 binding: i
C[C@@H]1CN([C@H](C)CO)C(=O)Cc2cc(NS(=O)(=O)c3ccc(F)cc3)ccc2O[C@H]1CN(C)Cc1ccccc1
  rRNA inh HTS: -1.0
  rRNA inh HTS OD600: -5.3
  rRNA inh HTS RFP: 1.4
  FGF22 binding: i
CN1C(=O)c2cc(NC(=O)c3cccc(F)c3)ccc2OC[C@@H]2O[C@@H](CC(=O)O)CC[C@@H]21
  rRNA inh HTS: 1.9
  rRNA inh HTS OD600: 6.7
  rRNA inh HTS RFP: 1.6
  FGF22 binding: i

Later entries
Every second line gives: rRNA inh HTS	rRNA inh HTS OD600	rRNA inh HTS RFP	FGF22 binding
COc1ccccc1NC(=O)N[C@@H]1CC[C@H](CC(=O)N2CCC(Cc3ccccc3)CC2)O[C@@H]1CO
 : -3.7	-10.8	0.6	i
C[C@@H]1CN([C@@H](C)CO)C(=O)c2cc(NC(=O)c3ccncc3)ccc2O[C@@H](C)CCCCO[C@H]1CN(C)C
 : 3.6	1.5	0.4	i
O=C(NCC[C@@H]1CC[C@H](NS(=O)(=O)c2ccc(F)cc2)[C@@H](CO)O1)c1ccc2c(c1)OCO2
 : -1.9	3.4	0.7	i
C[C@H](CO)N1C[C@H](C)[C@H](CN(C)Cc2ccc(C(=O)O)cc2)OCc2ccccc2-c2ccccc2C1=O
 : 0.0	18.8	-5.6	i
COc1ccc(NC(=O)Nc2ccc3c(c2)C(=O)N([C@@H](C)CO)C[C@H](C)[C@@H](CN(C)C)O3)cc1
 : 6.4	3.1	1.2	i
COc1ccc(NC(=O)N(C)C[C@@H]2Oc3ccc(NC(=O)c4ccncc4)cc3C(=O)N([C@@H](C)CO)C[C@@H]2C)cc1
 : 1.5	1.3	0.1	i
Cc1cc2c(c(=O)o1)[C@@]1(C(=O)Nc3ccccc31)C1=C(CCCC1=O)O2
 : 7.5	4.1	-1.6	i
Cc1noc(C)c1NC(=O)Nc1ccc2c(c1)C(=O)N([C@@H](C)CO)C[C@@H](C)[C@@H](CN(C)C(=O)Cc1ccccc1)OCCCC[C@@H](C)O2
 : -1.3	-1.5	1.2	i
COCC#Cc1cnc2c(c1)C(=O)N([C@H](C)CO)C[C@H](C)[C@@H](CN(C)C(=O)Nc1cc(F)ccc1F)O2
 : -0.3	2.0	0.3	i
C[C@@H]1CCCCO[C@@H](CN(C)Cc2ccc(C(F)(F)F)cc2)[C@H](C)CN([C@@H](C)CO)C(=O)c2cc(NC(=O)CCCN(C)C)ccc2O1
 : 2.0	-6.0	5.0	i
